Source: PubChem BioAssay (Fisher Drug Discovery Resource Center)
NPYLR7 ag – agonists of mosquito NPYLR7 receptor, primary screen, cell-based, Aedes aegypti, calcium fluorescence, mosquito biting behavior. Aedes aegypti neuropeptide Y-like receptor 7 (NPYLR7). HEK293T NPYLR7/Galpha15, GCaMP6s calcium fluorescence. activation, % at 10 µM. 270,000 tested, 0.15% active; in the data active = activation above about 40%;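 note: 0% = vehicle and 100% = reference agonist at the receptor; some compounds past the cut are filed as inactive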
NPYLR7 ag max-min – second read-out of NPYLR7 ag, no call of its own (marks repeat the call); activation, %; measured here: Max-Min RFU normalised activation; some inactives read as strong as hits;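 span of the calcium signal over five minutes; 0% = vehicle and 100% = native peptide agonist; compound fluorescence can raise it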
The depositor's hits bear a star. This is a subset; rates above refer to the full screens.

Screening CCOC(=O)c1c(C)nc2n(Cc3ccccc3)c3ccccc3n12 returned NPYLR7 ag -10 and NPYLR7 ag max-min -9.
Screening Cc1ccc(NC(=O)CSc2nccn3nc(-c4ccccc4)cc23)cc1Cl returned NPYLR7 ag 2 and NPYLR7 ag max-min -1.
`CCN(CC)CCNc1nc(C23CC4CC(CC(C4)C2)C3)cs1` gave NPYLR7 ag 1 and NPYLR7 ag max-min 1.
COc1cc(C2Nc3ccccc3-c3nnc(SC)nc3O2)cc(OC)c1O (centres undefined) was read as NPYLR7 ag -5 and NPYLR7 ag max-min -9.
Screening COc1ccc(-n2nc(-c3cccc(OC)c3)cc2C(=O)NC(c2ccccc2)c2ccccc2)cc1 returned NPYLR7 ag 0 and NPYLR7 ag max-min 11.
For O=C(NCCCl)N1CCn2cccc2C1c1ccc(F)c(F)c1 (centres undefined) the results were NPYLR7 ag 14 and NPYLR7 ag max-min 10.
`Cc1cccc(C2(C(=O)OCc3cc(=O)n(C)c(=O)n3C)CC2)c1` gave NPYLR7 ag 2 and NPYLR7 ag max-min 0.
Screening COc1ccc(-c2cn3nc(SCC(=O)Nc4nc5ccccc5s4)ccc3n2)cc1 returned NPYLR7 ag 15 and NPYLR7 ag max-min 16.
`COc1ccc(CC2(CO)CCN(C(=O)c3ccc4c(c3)OCO4)CC2)cc1` gave NPYLR7 ag 13 and NPYLR7 ag max-min 0.
Screening CC(=O)NCc1cn2ccsc2n1 returned NPYLR7 ag 2 and NPYLR7 ag max-min 7.
O=C(O)c1cnc2c(c1)c(C1CC1)nn2-c1ccccc1 was read as NPYLR7 ag -2 and NPYLR7 ag max-min -1.
For O=C(/C=C/c1ccccn1)Nc1cccc(Oc2ccncc2)c1 the results were NPYLR7 ag 1 and NPYLR7 ag max-min 3.
CC(C)CNC(=O)CCN(c1nc(C2CC2)nc2cc(Cl)ccc12)C(C)C was read as NPYLR7 ag 21 and NPYLR7 ag max-min 24.
Screening O=C1NCCCC1NS(=O)(=O)NCc1ccccc1 (centres undefined) returned NPYLR7 ag 6 and NPYLR7 ag max-min 4.
`CCOc1ccc(Cl)cc1CSc1nncn1N` gave NPYLR7 ag -1 and NPYLR7 ag max-min -2.
For Cc1nc(-c2ccccc2)n(CN2CCCCC2C2OCCO2)n1 (centres undefined) the results were NPYLR7 ag -13 and NPYLR7 ag max-min -12.
`CCOc1ccc(-n2nnc(C(=O)Nc3cc(C)on3)c2C)cc1` gave NPYLR7 ag -2 and NPYLR7 ag max-min -10.
`ClCC1CNC(c2ccc(Cl)cc2)O1` (centres undefined) gave NPYLR7 ag -2 and NPYLR7 ag max-min -3.
CN(C)c1ccc(C(=O)N2CCN(C(=O)C3CCS(=O)(=O)C3)CC2)cn1 (centres undefined) was read as NPYLR7 ag 0 and NPYLR7 ag max-min 18.
Cc1nc2ccccc2nc1N1CCN(C(=O)CCC2CCCC2)CC1 was read as NPYLR7 ag 21 and NPYLR7 ag max-min 19.
CCC(=O)Nc1ccc(-c2ccc(N3CCCCC3)nn2)cc1 was read as NPYLR7 ag -6 and NPYLR7 ag max-min -7.
For CCc1cc(CNC(=O)CC2C(=O)NCCN2Cc2c(F)cccc2Cl)on1 (centres undefined) the results were NPYLR7 ag 2 and NPYLR7 ag max-min 0.
For NCCC(=O)NCCc1cnc[nH]1 the results were NPYLR7 ag -5 and NPYLR7 ag max-min -12.
Cc1ncsc1CCOC(=O)CC12CC3CC(CC(C)(C3)C1)C2 was read as NPYLR7 ag 17 and NPYLR7 ag max-min 23.
Screening COc1ccc(/C=C2N=C(/C=C/c3ccc(C)cc3)OC\2=O)cc1OC(C)=O returned NPYLR7 ag -16 and NPYLR7 ag max-min -22.
For CC(C)NC(=O)N(Cc1cc(NC(=O)C2CCCC2)ccc1N(C)C)CC1CCCO1 (centres undefined) the results were NPYLR7 ag 19 and NPYLR7 ag max-min 20.
For Cc1ccc(-c2csc(-n3nc(C)cc3NC(=O)Cc3cccs3)n2)cc1 the results were NPYLR7 ag -9 and NPYLR7 ag max-min -14.
Screening O=C(Nc1cccnc1)C1=COC2=NC(=O)N(Cc3ccccc3)CCN12 returned NPYLR7 ag -5 and NPYLR7 ag max-min -5.
Screening CCc1c(C#N)nn(-c2ccccc2)c(=O)c1C#N returned NPYLR7 ag 7 and NPYLR7 ag max-min 9.
COc1cccc2c(C)c(C(=O)NCCC(=O)N3CCCCC3)oc12 was read as NPYLR7 ag -23 and NPYLR7 ag max-min -26.
O=C(Nc1ccc(Cl)c2ncccc12)C1CCCN(C(=O)c2cccs2)C1 (centres undefined) was read as NPYLR7 ag -2 and NPYLR7 ag max-min -5.
Screening Nc1ccnc(-c2ccc(CO)cc2)c1 returned NPYLR7 ag 2 and NPYLR7 ag max-min 2.
`C/C=C/c1cc(C(=O)Nc2ccc(-c3nccs3)cc2)cc(OC)c1OC` gave NPYLR7 ag 4 and NPYLR7 ag max-min 0.
For Cc1ccc(S(=O)(=O)CCC(=O)N(C)Cc2c(F)cccc2Cl)cc1 the results were NPYLR7 ag -5 and NPYLR7 ag max-min -6.
`Cc1ccc2nc(-c3ccccc3F)c(NC(=O)C3CCCCC3)n2c1` gave NPYLR7 ag -3 and NPYLR7 ag max-min 2.
`O=S(=O)(c1ccccc1Br)N1CCCCC1c1ncc[nH]1` (centres undefined) gave NPYLR7 ag -1 and NPYLR7 ag max-min 11.
For CS(=O)(=O)N1CCN(C(=O)COc2ccc(Cl)cc2Cc2ccccc2)CC1 the results were NPYLR7 ag 2 and NPYLR7 ag max-min 3.
O=C(c1cccc(F)c1)N(Cc1nccn1Cc1ccc(Cl)c(Cl)c1)CC1CCCO1 (centres undefined) was read as NPYLR7 ag 1 and NPYLR7 ag max-min 13.
CCOc1ccc(-c2nc(Cn3ccn4nc(-c5ccc(CC)cc5)cc4c3=O)c(C)o2)cc1OC was read as NPYLR7 ag -4 and NPYLR7 ag max-min -6.
COc1ccc(C2c3cccn3CCCN2Cc2cccc(OC)c2OC)cc1 (centres undefined) was read as NPYLR7 ag 1 and NPYLR7 ag max-min 11.
`NC(=O)c1cc(-c2ccnc3[nH]ccc23)ccc1Cl` gave NPYLR7 ag 0 and NPYLR7 ag max-min 0.
For CCC/C=C/c1ccc2nc[nH]c(=O)c2c1 the results were NPYLR7 ag 18 and NPYLR7 ag max-min 13.
For Cn1nnnc1SCC(=O)Nc1cccc(C(F)(F)F)c1 the results were NPYLR7 ag 0 and NPYLR7 ag max-min -1.
For Cc1ccccc1NC1CCN(Cc2coc(-c3ccc(F)cc3)n2)CC1 the results were NPYLR7 ag 6 and NPYLR7 ag max-min 5.
Screening CCOc1ccccc1NC(=O)CC(=O)N(C)C(C)c1nccs1 (centres undefined) returned NPYLR7 ag 1 and NPYLR7 ag max-min -5.
Screening CC1(C)Cc2c(cnn2-c2ccc(F)cc2)C(NC(=O)c2cc(=O)c3ccccc3o2)C1 (centres undefined) returned NPYLR7 ag 9 and NPYLR7 ag max-min 4.
`COC(=O)CCCCCNC(=O)c1cc([N+](=O)[O-])cc([N+](=O)[O-])c1` gave NPYLR7 ag -4 and NPYLR7 ag max-min -10.
For CC(C)(C)c1ccc(OCC(=O)N2CCCC2(C)C(=O)O)cc1 (centres undefined) the results were NPYLR7 ag -2 and NPYLR7 ag max-min -5.
Screening Cc1nc2ccccn2c(=O)c1NC(=O)CC(C)(C)C returned NPYLR7 ag 4 and NPYLR7 ag max-min 3.
For CC#CCN1C(=O)C(CCC(=O)N2CCc3ccc(C(=O)OC)cc3C2)NC(=O)c2ccccc21 (centres undefined) the results were NPYLR7 ag 0 and NPYLR7 ag max-min 19.
Screening Cc1cnc(N2CC(N3CCCCC3)C2)nc1N(C)C returned NPYLR7 ag 2 and NPYLR7 ag max-min 1.
CCOc1ccc2nc(N3CCCC(C(=O)NCCc4cnccn4)C3)nc(C)c2c1 (centres undefined) was read as NPYLR7 ag 4 and NPYLR7 ag max-min 2.
Screening CCc1nc(CN2CCCC(CCC(=O)NCc3ccc(OC)cc3OC)C2)c(C)[nH]1 (centres undefined) returned NPYLR7 ag 3 and NPYLR7 ag max-min 3.
`CC(=O)N1CCn2c3c(c4cc(C5CCCCC5)ccc42)CCCC31` (centres undefined) gave NPYLR7 ag 6 and NPYLR7 ag max-min 3.
CC(C(=O)Nc1ccc(F)cc1F)N1CCc2sccc2C1 (centres undefined) was read as NPYLR7 ag 3 and NPYLR7 ag max-min 4.
For CCn1nc(C(=O)Nc2cccc(S(=O)(=O)NC3=NCCC3)c2)c2ccccc2c1=O the results were NPYLR7 ag 13 and NPYLR7 ag max-min 4.
Screening CC(=O)Nc1ccc(/C=C/C(=O)N(C)CC2CCCCC2)cc1 returned NPYLR7 ag 14 and NPYLR7 ag max-min 12.
Cc1nc(NCCNC(=O)Nc2cccc(Cl)c2C)cc(-n2cccn2)n1 was read as NPYLR7 ag -7 and NPYLR7 ag max-min -14.
Screening Cc1ncc(CN2CCC(CO)(Cc3ccccc3Cl)CC2)s1 returned NPYLR7 ag 24 and NPYLR7 ag max-min 6.
`CC(C)C(=O)Nc1cccnc1-c1ccc(C(=O)O)s1` gave NPYLR7 ag 27 and NPYLR7 ag max-min 16.

The closing 3 entries of the part before lead into the next:
Cc1nc(NCCNC(=O)Nc2cccc(Cl)c2C)cc(-n2cccn2)n1 was read as NPYLR7 ag -7 and NPYLR7 ag max-min -14.
Screening Cc1ncc(CN2CCC(CO)(Cc3ccccc3Cl)CC2)s1 returned NPYLR7 ag 24 and NPYLR7 ag max-min 6.
`CC(C)C(=O)Nc1cccnc1-c1ccc(C(=O)O)s1` gave NPYLR7 ag 27 and NPYLR7 ag max-min 16.
O=C(NC(=S)Nc1nncs1)C12CC3CC(CC(C3)C1)C2 was read as NPYLR7 ag 3 and NPYLR7 ag max-min 2.
Screening Cn1c(SCC(=O)N2CCCCC2)nc2c(-c3ccccc3)c[nH]c2c1=O returned NPYLR7 ag 3 and NPYLR7 ag max-min 2.
For CC1CN(c2cc(Oc3cccc(F)c3)ncn2)CCN1C(=O)C1CC1 (centres undefined) the results were NPYLR7 ag 13 and NPYLR7 ag max-min 13.
Screening CN(C)CCn1c2c(c(SCC(=O)Nc3cc(C(F)(F)F)ccc3Cl)nc1=O)CCC2 returned NPYLR7 ag -1 and NPYLR7 ag max-min -4.
`Cc1cccc(Cn2cccc2CN(Cc2ccccc2)Cc2cc(F)cc(F)c2)c1` gave NPYLR7 ag 2 and NPYLR7 ag max-min 4.
`CCc1cccc2c(C(CC(=O)N(CCN(C)C)Cc3ccccc3)c3cccc([N+](=O)[O-])c3)c[nH]c12` (centres undefined) gave NPYLR7 ag -2 and NPYLR7 ag max-min 4.
`COCC(=O)N1CCC(Oc2ccc(C(=O)NCC[C@@H]3C[C@@H]4C=C[C@H]3C4)cc2)CC1` gave NPYLR7 ag -2 and NPYLR7 ag max-min -6.
`COc1cccc(CSc2nnc(C(C)NC(=O)COc3ccc(Cl)cc3)n2-c2ccc(C)cc2)c1` (centres undefined) gave NPYLR7 ag 15 and NPYLR7 ag max-min 16.
`Cc1c(C(=O)OC(C)C)nnn1-c1nonc1N` gave NPYLR7 ag 5 and NPYLR7 ag max-min -3.
For NC(=O)c1c(NC(=O)Cn2nc(C(F)(F)F)c3c2CCC3)sc2c1CCCC2 the results were NPYLR7 ag 2 and NPYLR7 ag max-min 1.
Screening CC(C)CN(CC(C)C)C(=O)CSc1n[nH]c(N)n1 returned NPYLR7 ag -3 and NPYLR7 ag max-min -4.
CCCNC(=O)C1(C)CCN(Cc2cc(C)n(C)n2)C1 (centres undefined) was read as NPYLR7 ag 2 and NPYLR7 ag max-min 1.
For O=C(N1CCN(c2nccc(-c3cccc(C(F)(F)F)c3)n2)CC1)C(Cl)(Cl)Cl the results were NPYLR7 ag 1 and NPYLR7 ag max-min 12.
`COc1ccc(Cl)cc1N(CC(=O)NCc1ccccn1)S(=O)(=O)c1ccc(C)c([N+](=O)[O-])c1` gave NPYLR7 ag 12 and NPYLR7 ag max-min 13.
Screening O=C(c1ccco1)N(Cc1ccc(F)cc1)CC1CC(c2ccc3c(c2)OCO3)=NO1 (centres undefined) returned NPYLR7 ag 5 and NPYLR7 ag max-min 7.
For Cc1ccc(C(NC(=O)Nc2nccs2)C(C)(C)C)o1 (centres undefined) the results were NPYLR7 ag -6 and NPYLR7 ag max-min -6.
CC(Sc1ccc(Cl)cc1)C(=O)N1CCC1 (centres undefined) was read as NPYLR7 ag 0 and NPYLR7 ag max-min -1.
Screening COc1ccc(Nc2[nH]nc(NC(=O)CC3CC4CCC3C4)c2C#N)cc1 (centres undefined) returned NPYLR7 ag 2 and NPYLR7 ag max-min 2.
Screening CCN(CC)c1ccc(NC(=O)N2CCC2c2ccccc2)cn1 (centres undefined) returned NPYLR7 ag -11 and NPYLR7 ag max-min -14.
For CC(C(=O)NC12CC3CC(CC(C3)C1)C2)n1cccn1 (centres undefined) the results were NPYLR7 ag 2 and NPYLR7 ag max-min 0.

An excerpt of the results above, as a working copy:
Screening Cn1c(SCC(=O)N2CCCCC2)nc2c(-c3ccccc3)c[nH]c2c1=O returned NPYLR7 ag 3 and NPYLR7 ag max-min 2.
For CC1CN(c2cc(Oc3cccc(F)c3)ncn2)CCN1C(=O)C1CC1 (centres undefined) the results were NPYLR7 ag 13 and NPYLR7 ag max-min 13.
Screening CN(C)CCn1c2c(c(SCC(=O)Nc3cc(C(F)(F)F)ccc3Cl)nc1=O)CCC2 returned NPYLR7 ag -1 and NPYLR7 ag max-min -4.
`Cc1cccc(Cn2cccc2CN(Cc2ccccc2)Cc2cc(F)cc(F)c2)c1` gave NPYLR7 ag 2 and NPYLR7 ag max-min 4.
